Rango dissoc inh: inhibition of RanGTP-driven Rango-importin beta dissociation. O95149+P62826. Biochemical FRET Rango-importin beta, RanGTP-induced dissociation. Potency, µM (highest dose often 46.1 µM), for the others: at the top dose activity change, negative = inhibition. 340,000 compounds, 0.071% hits. AID 540253; active means falling FRET ratio curve, often poorly fitted, with flat reads before Ran was added; inconclusive means other falling curves, or compound fluorescence or quenching; inactive means flat or rising ratio curve;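 further: potency means the concentration at half of the fitted maximal effect; % of control where 0% means no effect; nearly all actives have a fitted effect of over 45% in size; -100% = wells without RanGTP and RCC1; the record marks most hits as doubtful in a second field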
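FRET read at 45 min, room temperature: inhibitors block the CFP/YFP signal rise when RanGTP (0.6 uM Ran, 2 mM GTP, 0.2 uM RCC1) frees Rango (0.1 uM) from importin beta (0.25 uM). Pre-read after 5 min compound exposure flags interference.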
GLA inh pH 4.5: blocks human alpha-galactosidase A at pH 4.5. P06280. purified enzyme, 4-MU-alpha-Gal fluorescence, pH 4.5. activity change, negative = inhibition, % at 105 µM. 230,000 tested, under 10 active. AID 1467; inconclusive = small, poorly fitted or top-dose-only inhibition, or a rising curve; inactive = flat fitted curve, though single readings scatter; no compound was filed as active;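 further: 0% = full activity with enzyme and -100% = basal without enzyme; dose as in the result columns while the protocol names 77 µM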
Rango complex inh: Rango-importin beta binding inhibition. Q14974. Rango CFP/YFP FRET sensor + importin beta, 45 min. Potency, µM (top dose mostly 92.2 µM), without a hit: at the top dose inhibition of complex formation. 340,000 compounds, 0.031% hits. AID 540263; active = rising FRET ratio curve, often small or poorly fitted; inconclusive = mostly compound fluorescence or quenching in the first reads; inactive = flat curves in all reads;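 further: potency means the concentration at half of the fitted maximal effect; 0% = DMSO wells and 100% = buffer wells lacking importin beta; nearly all actives have a fitted effect of over 15% in size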
Target sequence (Q14974 whole entry, looked up): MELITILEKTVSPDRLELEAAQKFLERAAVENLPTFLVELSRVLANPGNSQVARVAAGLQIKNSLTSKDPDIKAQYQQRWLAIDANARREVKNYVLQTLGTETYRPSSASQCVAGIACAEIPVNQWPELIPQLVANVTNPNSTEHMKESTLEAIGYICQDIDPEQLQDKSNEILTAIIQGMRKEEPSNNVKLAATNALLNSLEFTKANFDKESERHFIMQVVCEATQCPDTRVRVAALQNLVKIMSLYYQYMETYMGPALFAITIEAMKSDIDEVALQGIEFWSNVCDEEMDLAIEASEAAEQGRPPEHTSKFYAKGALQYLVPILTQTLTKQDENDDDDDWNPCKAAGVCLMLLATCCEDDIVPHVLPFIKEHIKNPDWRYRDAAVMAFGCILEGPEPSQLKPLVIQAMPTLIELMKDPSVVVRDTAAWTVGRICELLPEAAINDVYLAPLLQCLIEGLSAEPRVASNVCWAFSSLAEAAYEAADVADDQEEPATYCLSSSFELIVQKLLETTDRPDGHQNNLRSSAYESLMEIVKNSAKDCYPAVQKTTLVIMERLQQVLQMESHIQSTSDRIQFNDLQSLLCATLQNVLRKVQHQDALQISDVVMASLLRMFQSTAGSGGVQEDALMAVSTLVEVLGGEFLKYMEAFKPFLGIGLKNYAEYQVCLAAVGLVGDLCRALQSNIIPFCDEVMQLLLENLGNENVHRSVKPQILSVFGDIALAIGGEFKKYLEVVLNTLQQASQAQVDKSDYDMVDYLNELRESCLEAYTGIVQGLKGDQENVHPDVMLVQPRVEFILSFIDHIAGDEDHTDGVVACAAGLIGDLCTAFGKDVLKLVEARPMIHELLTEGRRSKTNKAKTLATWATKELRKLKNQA
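FRET biosensor Rango (snurportin 1 IBB between N-terminal EYFP and C-terminal Cerulean), 50 nM in PBS/1 mM DTT/0.02% Tween-20/0.1% BSA, preincubated 5 min RT with compound; 0.125 microM importin beta added, 45 min RT, CFP/YFP FRET ratio read.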
miR-21 reporter: miR-21 reporter, rising signal | HeLa miR-21 FLuc reporter, luciferase, 48 h | Potency, µM (top dose mostly 38.3 µM), inactives show at the top dose reporter change, positive = more light | 340,000 tested, under 10 active | AID 2288; active = well fitted rising curve with a large enough effect; inconclusive = small, poorly fitted or top-dose-only effect; inactive = no such curve, though single readings can be large or run the other way;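 further: % of control where 0% means no effect; miR-21 action dims this reporter so a rising signal means less miR-21 action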
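Using DMEM plus 10% FBS, HeLa miR-21-FLuc cells are incubated with test compounds (final up to about 40uM) for 48 hours; firefly luciferase signal is then imaged following reagent-mediated lysis.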
Starred values were filed as active, the others as inactive; ? = inconclusive; . = not tested or not shown; & = joins results of further samples.

miR-21 reporter | Rango complex inh | GLA inh pH 4.5 | Rango dissoc inh | compound
2% | -2.6% | 4 | 10% | O=C(NCc1ccccc1)C1C(=O)N(Cc2ccccc2)C(=O)C1C1(O)CCCC1 (stereo unspecified)
9% | -1.5% | -3&-3 | -5% | CC#CCN1c2ccccc2[C@]23C[C@@H](C(=O)OC)N=C2NC(C(=O)OC)=C(C(=O)OC)[C@H]13
-1% | 3.6% | . | -16% | CCOc1ccc(S(=O)(=O)n2cnc3ccccc32)cc1
. | -1.3% | . | -4% | Cc1sc2ncnc(N3CCC(C(=O)Nc4ccccc4C(C)(C)C)CC3)c2c1C
2% | -4.4% | -3 | 14% | CCc1[nH]nc2c1C1(CCN(C(=O)c3ccccc3)CC1)C(C#N)=C(N)O2
-7% | 4.0% | . | 8% | CCCCn1c(=O)[nH]c(=O)c2c1nc(-c1ccccc1OC(F)F)n2C
5% | ? | -8 | -16% | CCOc1ccc2nc(SCc3ccc(CC(=O)O)cc3)c(C#N)cc2c1
. | -0.5% | . | 7% | CC(=O)OCC1OC(OC2C[C@]3(C)C(CC(O)C4C([C@](C)(CCC=C(C)C)OC5OC(CO)C(O)C(O)C5O)CC[C@]43C)[C@@]3(C)CCC(O)C(C)(C)C23)C(O[C@@H]2OC(C)C(O)C(O)C2O)C(O)C1O (stereo partly specified)
2% | -4.2% | 0 | -11% | COc1ccc(CCNC(=O)c2c(O)c3cccc4c3n(c2=O)CC4)cc1OC
-6% | 0.1% | -3 | -1% | COc1cc(OC)nc(NC(=O)CS(=O)(=O)c2ccccc2)n1
16% | -4.0% | . | -7% | CCC1CN(C(=O)N2CCC(C(=O)NCc3ccccc3OC)CC2)c2ccccc2O1 (stereo unspecified)
-10% | -3.2% | 1 | 2% | CCCCCOC(=O)CSc1nc2c(c(=O)[nH]c(=O)n2C)n1CCc1ccccc1
. | ? | . | -14% | Cc1ccc(C(=O)NCC(c2cccs2)N(C)C)cc1S(=O)(=O)N1CCOCC1 (stereo unspecified)
28% | 1.5% | 2 | ? | CCOC(=O)N1CCC(N(CCN(C)C)C(=S)Nc2cccc(Cl)c2C)CC1
. | 1.4% | . | -11% | CCc1ccc(OCC(=O)NCCc2ccc3c(c2)OCCO3)cc1
3% | 0.1% | -7 | -6% | CCc1ccccc1N/N=C(/C)c1c(O)cc(C)oc1=O
. | -5.6% | . | -3% | O=C(NCCC(=O)N1CCN(c2cccc(Cl)c2)CC1)c1ccc(Br)cc1
-20% | -1.1% | 4 | -1% | COc1ccc(Cn2cnc3sccc3c2=O)cc1
. | -7.4% | . | -2% | COCCN(C(=O)COC(=O)c1ccccc1Nc1ccccc1)c1c(N)n(Cc2ccccc2)c(=O)[nH]c1=O
. | ? | . | ? | CC(=O)Oc1ccc(C#C/C=C2\c3ccccc3C(=O)N2c2ccccc2)cc1
-49% | . | ? | . | CC(C)c1ccc2oc3nc(N)c(C(=O)O)cc3c(=O)c2c1
-2% | -0.9% | . | -12% | COc1ccc(NC2CCCN(C(=O)c3ccccc3N3CCOCC3)C2)cc1OC (stereo unspecified)
. | 2.2% | . | 5% | O=C(NCCS(=O)(=O)N1CCCCC1)c1ccccc1
-53% | -0.6% | 3 | 0% | CC(Oc1ccc(Cl)cc1Cl)C(=O)Nc1cccc(O)c1 (stereo unspecified)
. | -4.1% | . | -12% | CCCCn1c(N)c(N(CC(C)C)C(=O)c2cccc(-n3cnnn3)c2)c(=O)[nH]c1=O
0% | -0.4% | 2 | -6% | O=S(=O)(c1ccccc1)N1CCN(c2ncccn2)CC1
-12% | ? | -16 | ? | CCN(CC)CCN1C(=O)C(=O)/C(=C(/O)c2ccc(OC)c(OC)c2)C1c1ccccn1 (stereo unspecified)
2% | -4.7% | . | 1% | O=C1[C@H]2[C@@H](c3ccc(F)cc3)N3C(=O)N(c4cccc(Br)c4)C(=O)[C@@]3(Cc3ccc(Cl)cc3)[C@H]2C(=O)N1C1CCCCC1
0% | -0.3% | . | -8% | CC1CCCN(CCCNS(=O)(=O)c2cc(Br)cc3c2N(C(=O)C2CC2)CC3)C1 (stereo unspecified)
2% | -5.1% | -23 | -11% | Cc1c(C(=O)Nc2cc(S(=O)(=O)N3CCOCC3)ccc2N2CCN(C)CC2)oc2ccccc12
-3% | 0.8% | 1 | 8% | C=CCn1c(SCCN2CCCCC2)nc2c1c(=O)[nH]c(=O)n2C
-1% | -3.0% | . | -8% | COc1ccc(CCN2CC(C(=O)NCc3ccccc3)CCC2=O)cc1 (stereo unspecified)
. | -1.3% | . | -7% | Cc1cccc(NS(=O)(=O)c2cc3c4c(c2)CCN4C(=O)CC3)c1C
-7% | -1.0% | 2 | 0% | Cc1nc(-c2cccc(S(=O)(=O)N3CC(C)OC(C)C3)c2)cs1 (stereo unspecified)
-5% | -0.9% | -1 | -2% | COCCNC(=O)c1cc2cc(Br)cc(OC)c2oc1=O
. | 0.2% | . | 28% | CC(=O)N/C(=C/c1ccccc1)c1ccccc1
-4% | -1.7% | -10 | ? | CCOC(=O)c1cc2c(ccn2C)n1Cc1ccccc1Cl
? | -2.6% | . | 6% | Cc1cccc2sc(N(CCCN(C)C)C(=O)CCS(=O)(=O)c3ccccc3)nc12
-20% | -3.9% | . | -12% | CCOC(=O)C1CCN(C(=O)CCn2c(=O)c3cccn3c3cccnc32)CC1
-6% | -0.7% | -6 | 13% | O=C(Nc1ccc(N2CCN(C(=O)c3ccco3)CC2)cc1)c1ccccc1F
-12% | 1.2% | -8 | -18% | CCc1[nH]c(=S)c(C#N)c2c1CCCC2
2% | 2.7% | . | 10% | COc1cccc(CNC(=O)CCS(=O)(=O)c2ccc3c(c2)NC(=O)CO3)c1
25% | 0.1% | . | 4% | CCC1Sc2ccc(S(=O)(=O)CCC(=O)NCc3cccs3)cc2NC1=O (stereo unspecified)
-3% | -0.5% | . | -12% | CN(C)S(=O)(=O)c1cccc(NC(=O)c2c[nH]c3ccccc23)c1
0% | ? | 1 | 24% | CCc1ccc(C(=O)c2cnc3ccc(OC)cc3c2N2CCN(CC)CC2)cc1
-1% | ? | 1 | ? | COC(=O)c1ccc(N=C2S/C(=C\c3cc(C)n(-c4cccnc4)c3C)C(=O)N2C)cc1
1% | 0.8% | -1 | -3% | CCNCc1nc2cc(OC)c(OC)cc2c(=O)[nH]1
0% | -1.0% | -3 | -4% | Cc1ccnc(NC(=O)c2cccc(NC(=O)Cc3ccccc3)c2)c1
-3% | -0.2% | 3 | -3% | Cc1ccc2[nH]c(C(=O)O)c(-c3ccccc3)c2c1
-10% | -3.5% | -9 | 1% | Oc1cc2ccccc2nc1-c1ccccc1Cl

Next part:
miR-21 reporter | Rango complex inh | GLA inh pH 4.5 | Rango dissoc inh | compound
-23% | 0.8% | 2 | -13% | CCN1C(=O)c2cccc3c(S(=O)(=O)Nc4nc(C)cs4)ccc1c23
-15% | -1.5% | . | -8% | Cc1cc(NC(=O)CCC(=O)N(CC(=O)NC2CCCC2)c2ccc(C(C)C)cc2)no1
25% | 0.2% | . | -12% | CCN(CC1CCCN(CCc2cccc(F)c2)C1)C(=O)c1cc2ccccc2o1 (stereo unspecified)
-5% | -0.5% | 0 | -2% | CN(C[C@H](Cc1ccccc1)N(C[C@H](Cc1ccccc1)N(CC1(c2ccccc2)CC1)N=O)N=O)N=O
-2% | -3.5% | -19 | -8% | CC(NC(=O)c1cc2cc([N+](=O)[O-])ccc2oc1=O)C1CCCO1 (stereo unspecified)
4% | 0.0% | . | 54% | Cc1nc2ccccc2n1CC(=O)c1ccccc1
. | -4.1% | -14 | -1% | COc1cc(OC)c2c(-c3cccc(-c4ccc(C#N)cc4)c3)cc(=O)oc2c1
-15% | ? | 2 | 3% | C/C(=N\NC(=O)c1cccc(N/N=C(\C)c2ccncc2)c1)c1ccncc1
-1% | ? | 4 | -18% | Cc1c(NC(=S)NC(C)(C)C)c(=O)n(-c2ccccc2)n1C
-1% | 3.9% | -12 | 0% | COc1ccc(Br)cc1CNC(=O)Cc1c(C(=O)O)[nH]c2ccc(Cl)cc12
-56% | 2.6% | -5 | 19% | O=C(CSCc1ccc(Cl)cc1)N1CCCCC1
-57% | 0.3% | . | 3% | O=C(c1cc(-c2ccc(Cl)cc2Cl)on1)N1CCCCCC1
-3% | -1.4% | 1 | 1% | COCc1cc(CN2CCCC(C(=O)c3cccc(C(F)(F)F)c3)C2)ccc1OC (stereo unspecified)
-9% | 1.1% | -5 | -5% | COC(=O)COc1ccc(NC(=O)C2CCCO2)cc1 (stereo unspecified)
-8% | -2.8% | -16 | -14% | COC(=O)c1ccccc1NC(=O)NCc1ccc2c(c1)OCO2
4% | 1.0% | -21 | -7% | Cc1nn(Cc2ccc(Cl)cc2)c(C)c1NC(=O)CCCn1nc([N+](=O)[O-])c(Cl)c1C
. | -1.2% | . | 22% | c1cc(CCCc2ccncc2)ccn1
-9% | 0.4% | -2 | -8% | CC1Oc2ccccc2N(CC(=O)c2cccc(Cl)c2)C1=O (stereo unspecified)
-18% | -3.2% | . | -15% | CCOC(=O)N1CCN(C(=O)c2cc3cc(F)ccc3[nH]2)CC1
-1% | 0.3% | 2 | -15% | CC(C)CN1CCN(Cc2cnc(-c3ccc(Cl)cc3)nc2)CC1CCO (stereo unspecified)
. | ? | . | -8% | CC(C)(CNC(=O)c1cc([N+](=O)[O-])ccc1N1CCC(Cc2ccccc2)CC1)N1CCOCC1
-39% | -0.8% | 3 | 1% | COc1ccc(-c2noc(-c3ccc4c(c3)OCO4)n2)cc1
. | 5.3% | . | ? | Cc1cc(NC(=O)CSc2nc(C)c(C)n2CC(C)C)no1
-1% | 0.1% | -22 | -12% | Cn1nc(C(F)(F)F)c(C(=O)Nc2ccc(F)cc2F)c1Sc1ccc(Cl)cc1
3% | -0.8% | -13 | -11% | CCC(=O)N1CCN(c2ccccc2NC(=O)COc2ccccc2Cl)CC1
-7% | -8.7% | -5 | -13% | Cc1cc(-c2n[nH]c(=S)n2/N=C/c2ccccc2[N+](=O)[O-])n[nH]1
14% | 0.2% | 3 | 8% | CCC(=O)N(CCN1CCOCC1)Cc1cc2cc3c(cc2nc1Cl)OCO3
-2% | 0.5% | -4 | -2% | CN(C)c1cc[n+](CCC(=O)Nc2cccc([N+](=O)[O-])c2N)cc1
0% | -2.3% | . | 0% | COc1cccc(NC(=O)N2CCC(NC(=O)C(Cc3cccc(C)c3)NC(C)=O)CC2)c1 (stereo unspecified)
. | ? | . | -1% | Nc1ccc(N=Nc2ccc(O)cc2)c(N)n1
0% | -0.3% | -3 | 12% | CCCCNC(=S)N(C)/N=C/c1ccc(OCC(=O)Nc2c(C)cc(C)cc2C)c(OC)c1
-2% | -0.8% | 4 | -7% | Cc1ccc(C)c(C2C(C#N)=C(N)Oc3cc(C)oc(=O)c32)c1 (stereo unspecified)
1% | ? | 0 | ? | O=C1Nc2ccc(Br)cc2C12NNc1ccccc1O2 (stereo unspecified)
-8% | -0.5% | . | 0% | CN(C(=O)COC(=O)c1ccccc1Cc1ccccc1)C1CCS(=O)(=O)C1 (stereo unspecified)
5% | 3.7% | 1&4 | 0% | COC(=O)[C@@H]1C[C@@]2(O)[C@@H](O)[C@@H](O)[C@@H](O)C[C@H]2N1Cc1ccc(C(F)(F)F)cc1
-4% | -0.9% | -4&6&-9 | 18% | CC(C)[N+](C)(CCOC(=O)C1c2ccccc2Oc2ccccc21)C(C)C
0% | -2.9% | 6 | -22% | O=C(CCCCCNc1nc(=S)[nH]c2ccccc12)NCCC1=CCCCC1
-2% | -1.4% | 1 | -2% | O=C(C1=C[C@H](c2csc3ccccc23)C[C@H](OCCCCO)O1)N1CCOCC1
-3% | 4.9% | . | 2% | COc1cc2c(c(OCC(=O)NC(C)C)c1)C(=O)O[C@@H](C)CCCC(=O)CCCCC2

Profiles from above. Order of values: miR-21 reporter | Rango complex inh | GLA inh pH 4.5 | Rango dissoc inh
CN(C(=O)COC(=O)c1ccccc1Cc1ccccc1)C1CCS(=O)(=O)C1 (stereo unspecified) across the screens: -8% | -0.5% | . | 0%
CC(C)[N+](C)(CCOC(=O)C1c2ccccc2Oc2ccccc21)C(C)C across the screens: -4% | -0.9% | -4&6&-9 | 18%
O=C1Nc2ccc(Br)cc2C12NNc1ccccc1O2 (stereo unspecified) across the screens: 1% | ? | 0 | ?

Screens from PubChem BioAssay.

Not all compounds are listed; count on the stated rates, not on these rows.
